Bioassay records: PubChem, National Center for Advancing Translational Sciences (NCATS)
StopGo FLuc: lowers the firefly signal of an FMDV 2A StopGo reporter. HEK cells with a luciferase reporter of 2A StopGo recoding. Potency, µM (highest dose often 57.5 µM), without a hit: at the highest dose signal change, negative = less light. 0.23% of 120,000 active; active = well fitted falling curve with a large enough effect; inconclusive = small, poorly fitted or top-dose-only effect; inactive = no such curve, though single readings can be large or run the other way; also: nearly all actives have a fitted effect of over 60% in size; overnight with compound
2A Renilla: FMDV 2A StopGo reporter, Renilla signal; Potency, µM (series often up to 57.5 µM), for inactives: at the highest dose signal change, negative = less light; 0.32% of 120,000 active; HEK cells with a luciferase reporter of 2A StopGo recoding; active means well fitted falling curve with a large enough effect; inconclusive means small, poorly fitted or top-dose-only effect; inactive means no such curve, though single readings can be large or run the other way; also: nearly all actives have a fitted effect of over 55% in size; overnight with compound
An asterisk follows results filed as active; ? = inconclusive; & = joins results of further samples; [ ] = remark or other dose. % is scaled to controls: 0 for no effect and ±100 for the full control effect; potency is read from the fitted curve at half-maximal effect.

SMILES	StopGo FLuc	2A Renilla
COc1cc(OC)cc(N2C(=O)N(Cc3ccc(C(C)(C)C)cc3)c3ccccc3S2(=O)=O)c1	6%	79%[activator]
COCCCNc1nc2c(-c3ccccc3)nnn2c2ccccc12	-8%	-10%
O=C(Nc1ccc(Br)cc1)C1C2CCC3C(CCC21)C3(Cl)Cl (centres undefined)	36%[activator]	-7%
Cc1cccc(-n2nc(C)c(C(=O)NCCN3CCCCC3C)c2-n2cccc2)c1 (centres undefined)	0%	-4%
CCOc1ccc(CNC(=O)c2ccc(NC(=O)N3CCSc4ncccc43)cc2)cc1	48%[activator]	10%
CC(=O)c1ccc(N2CCCC(C)C2)cc1 (centres undefined)	142%[activator]	8%
COc1nc2ccccc2nc1N1CCC(C(=O)NCc2ccccc2)CC1	-7%	-7%
C=CCNC(=S)NNC(=O)C(CC)CC(C)(C)O (centres undefined)	0%	0%
O=C(O)CCCC(=O)N1CCc2cc(S(=O)(=O)NCc3ccccc3)ccc21	-16%	59%[activator]
CCc1ccc(CNC(=O)c2c(C)oc3ncnc(N4CCCCC4)c23)cc1	?	?
Cc1ccc(S(=O)(=O)N2CCCc3cc(NC(=O)c4ccc(C(C)(C)C)cc4)ccc32)cc1	12%	4%
Cc1ccc(N2CC(NC(=O)Nc3nc4ccccc4s3)CC2=O)cc1 (centres undefined)	-4%	-7%
Cn1ccc2c(C(=O)Nc3ccc(C(N)=O)cc3)cccc21	149%[activator]	9%
Cc1ccc(C)c(C(C)NC(=O)Nc2ccccc2Br)c1 (centres undefined)	0%	-3%
Brc1ccc(-c2nc(-c3ccc4c(c3)OCO4)no2)o1	0%	17%
CCc1nn(CC(=O)NCc2cccc(OC)c2OC)c(=O)c2cc3occc3n12	18%	27%
O=c1oc(-c2ccc(F)cc2)nn1CC(O)COc1ccc(-c2ccccc2)cc1 (centres undefined)	20%	5%
Cc1ccc(CNS(=O)(=O)c2ccc(-c3cnc(C4CC4)o3)cc2)cc1	-18%	18%
CCN1C(=O)N(c2ccc(C(C)=O)cc2)S(=O)(=O)c2ccccc21	13%	24%
CCN(Cc1ccccc1)C(=O)CCS(=O)(=O)c1cc(Br)cc2c1N(C(=O)C1CC1)CC2	-8%	95%[activator]

Full records, looked up by structure. Order of screens: StopGo FLuc	2A Renilla
CCN1C(=O)N(c2ccc(C(C)=O)cc2)S(=O)(=O)c2ccccc21 is listed with 13%	24%
Brc1ccc(-c2nc(-c3ccc4c(c3)OCO4)no2)o1 is listed with 0%	17%
CCN(Cc1ccccc1)C(=O)CCS(=O)(=O)c1cc(Br)cc2c1N(C(=O)C1CC1)CC2 is listed with -8%	95%[activator]
CCc1nn(CC(=O)NCc2cccc(OC)c2OC)c(=O)c2cc3occc3n12 is listed with 18%	27%
Cn1ccc2c(C(=O)Nc3ccc(C(N)=O)cc3)cccc21 is listed with 149%[activator]	9%

Remaining list, next part:
SMILES	StopGo FLuc	2A Renilla
CCCc1cc(=O)oc2cc(OS(=O)(=O)c3c(C)c(C)cc(C)c3C)ccc12	-4%	0%
COc1ccccc1OCc1ccc(C(=O)OC2CCCCC2)o1	0%	36%
Cc1cccc2sc(N(Cc3cccnc3)C(=O)COc3ccccc3)nc12	-1%	32%[activator]
COc1cc(NC(=O)c2cc(-c3ccc4c(c3)OCO4)on2)cc(OC)c1OC	-5%	0%
Cc1cccc(NC(=O)CN2CCN(C(=O)CCNC(=O)c3ccc(C(C)(C)C)cc3)CC2)c1C	17%	18%
Cc1ccc(Nc2c(-c3ccc(Br)o3)nc3ccccn23)cc1	281%[activator]	65%[activator]
Cc1ccc(CNC(=O)CCCn2c(=O)c3sccc3n(CC(=O)Nc3c(C)cccc3C)c2=O)cc1	17%	-12%
O=C(COC(=O)C1=COCCO1)Nc1cccc(S(=O)(=O)N2CCCC2)c1	-11%	-8%
O=C(NCc1ccc2c(c1)OCO2)c1ccc2c(c1)N(Cc1ccccc1F)C(=O)c1ccccc1S2=O (centres undefined)	-17%	18%
Cn1cnc(S(=O)(=O)N2CCC(C(=O)NCc3ccccc3)CC2)c1	-18%	-6%
COc1ccc(C23CC4CC(CC(C(=O)Nc5nccs5)(C4)C2)C3)cc1	7%	9%
COc1ccc(C)cc1NC(=O)C(=O)NCC(c1cccnc1)N1CCN(c2ccccc2F)CC1 (centres undefined)	3%	6%
CC(C)Cc1nc(NCc2ccncc2)c(C#N)c2c1CCCC2	7%	-2%
COc1ccccc1CNC(=O)Cn1c(=O)nc(-c2ccccc2)c2ccccc21	6%	-7%
COc1cc(C2CC(=O)Nc3ccc4ccccc4c32)ccc1OC(=O)C(C)C (centres undefined)	-6%	-1%
O=C(CN(Cc1ccc2c(c1)OCO2)C1CCCC1)Nc1ccc2[nH]c(=O)[nH]c2c1	8%	-6%
O=C(Nc1cc(Cl)cc(Cl)c1)C(c1ccccc1)N1CCN(C(=O)C2CC2)CC1 (centres undefined)	10%	6%
CSC1=N/C(=C\c2ccc(Br)cc2)C(=O)S1	34%[activator]	22%
Cc1cccc(-c2cccc3c4c([nH]c23)[C@@H]2C[C@H](N(C)C(=O)Nc3ccccc3C)[C@H]([C@H](C)O)C(=O)N2CC4)c1	?	?
Cc1cccc(C)c1Nc1c(-c2ccc(Cl)s2)nc2ncccn12	10%	2%
Cc1ccccc1Nc1c(-c2cccnc2)nc2cccc(C)n12	?	?
O=C(CSC1=NC2(CCCCC2)N=C1c1cccs1)NCc1ccc(F)cc1	11%	64%[activator]
COc1ccc(OC)c(C(=O)/C=C/c2cccs2)c1	39%[activator]	?
CCc1cc(C(=O)NC(CC(=O)OC)c2ccc(OC)c(OC)c2)sc1C (centres undefined)	-4%	-13%[1.06 µM]
Cn1c(=O)c2c(SCC(=O)N3CCc4ccccc43)nc(-c3cccc(F)c3)nc2n(C)c1=O	-12%	5%
COc1ccc(CO/N=C/c2cc(OC)c(OC)c(OC)c2)cc1F	22%	28%
COc1cccc2cc(C(=O)NCCc3c(C)[nH]c4c(C)cccc34)c(=O)oc12	-6%	-3%
O=C(/C=C/c1cccc([N+](=O)[O-])c1)c1ccccc1OC(F)F	?	?
Cc1ccccc1CSCC(=O)O	14%	-14%
CCC(Sc1nncn2c1cc1sccc12)C(=O)Nc1cccc(OC)c1 (centres undefined)	3%	-4%

Given with values under each structure: entries from further up.
Order of values – StopGo FLuc, 2A Renilla
- COc1ccc(CO/N=C/c2cc(OC)c(OC)c(OC)c2)cc1F
  22%, 28%
- COc1ccc(OC)c(C(=O)/C=C/c2cccs2)c1
  39%[activator], ?

(continued)
SMILES	StopGo FLuc	2A Renilla
CCOC(=O)c1cnc2c(C)cc(C)cc2c1Nc1ccccc1OCC	9%	11%
Nc1cccc(C#Cc2ccccc2)c1	166%[activator]	18%
Cc1cc2oc(C(=O)N(Cc3ccco3)Cc3ccco3)cc(=O)c2cc1Cl	-2%	-2%
COc1ccc(OC)c(NC(=O)Cn2c(=O)c3cccn3c3ccccc32)c1	-20%	11%
C=CCNc1nc(-c2cc(C)n(-c3c(C)n(C)n(-c4ccccc4)c3=O)c2C)cs1	-7%	-12%
Cc1cc(NC(=O)c2ccc([N+](=O)[O-])o2)cc(-c2nc3ccccc3o2)c1O	5%	0%
COCCCNC(=O)Cc1c(C)c2ccc(OC)c(OC)c2oc1=O	5%	2%
Cc1ccccc1C(=O)OCc1cc(=O)n2nc(-c3cccs3)sc2n1	1%	-16%
Cc1c(N)cccc1C(=O)NCC(C)C	-8%	-2%
N#Cc1cccc(NC(=O)Cn2nc3c(N4CCOCC4)nc4ccccc4n3c2=O)c1	2%	-9%
Cn1c2c(c(=O)n(C)c1=O)C(c1ccc(C(=O)O)cc1)C1=C(CC(C)(C)CC1=O)N2 (centres undefined)	16%	2%
Cn1cc(-c2cc3n(n2)CCC(=O)N3CC(=O)NCc2ccc(Cl)cc2)c2ccccc21	-19%	-16%
Cc1cccc(S(=O)(=O)N2CCN(c3ccc(N4CCCCC4)nn3)CC2)c1	20%	17%
Cn1c(SCC(=O)NC2CCCCC2)nc2c(c1=O)SCC2	9%	2%
Cc1ccccc1C(=O)Nc1cccc(C(=O)OCc2cc(=O)n3ccsc3n2)c1	2%	-12%
Cc1ccc(CNC(=O)C(C)n2c(=O)cc(-c3ccccc3)c3c(C)nn(C)c32)cc1 (centres undefined)	-16%	-7%
CC1=C(C(=O)Nc2ccccc2)C(c2ccc(Cl)cc2)NC(=S)N1 (centres undefined)	-5%	-4%
O=C(NCc1ccccn1)c1ccccc1Nc1ccccc1	0%	17%
COc1cccc(/C=C(/C#N)C(=O)c2ccccc2)c1OC(F)F	3%	17%
N#C/C(=C/c1ccc(F)c(F)c1)C(=O)Nc1ccc(Oc2ccc(NC(=O)/C(C#N)=C\c3ccc(F)c(F)c3)cc2)cc1	-10%	81%[activator]

Looked up by structure from the entries so far, 2 records:
SMILES	StopGo FLuc	2A Renilla
Cc1cc(NC(=O)c2ccc([N+](=O)[O-])o2)cc(-c2nc3ccccc3o2)c1O	5%	0%
O=C(CSC1=NC2(CCCCC2)N=C1c1cccs1)NCc1ccc(F)cc1	11%	64%[activator]

(more compounds)
SMILES	StopGo FLuc	2A Renilla
CCN(CC)S(=O)(=O)c1ccc2c(c1)c(=O)c(C(=O)NCc1ccc(Cl)cc1)cn2C	0%	-5%
Cc1ccc(Cl)cc1NC(=O)Nc1ccc2c(c1)oc(=O)n2C	9%	-1%
CC(C)C[C@H](NC(=O)[C@H](C)n1nnc2ccccc2c1=O)C(=O)O	0%	-13%
Cc1cccc2c(=O)cc(CSc3ccccc3NC(=O)C(C)(C)C)[nH]c12	-7%	-2%
Cc1nc2ccc(Cl)cc2cc1C(=O)N1CCN(CC(=O)N2CCCC2)CC1	37%[activator]	12%
CC(C(=O)N(C)Cc1ccccc1)S(=O)(=O)Cc1cccc(Cl)c1 (centres undefined)	9%	21%
CCOc1ccc(NC(=O)N2CCC(n3c(C)nc4cccnc43)CC2)cc1	-2%	-7%
CCOc1ccccc1NC(=O)CN(C)S(=O)(=O)c1ccc(C(=O)N2CCOCC2)s1	-23%	-7%
N#C/C(=C\c1c(OCc2ccccc2)ccc2ccccc12)c1nc2ccccc2[nH]1	0%	-8%
CCOc1ccc(-n2nc(CO)c(C(=O)NCC(C)O)n2)cc1 (centres undefined)	-1%	-12%

The list goes on; it opens with the 5 that closed the last part.
SMILES	StopGo FLuc	2A Renilla
CC(C(=O)N(C)Cc1ccccc1)S(=O)(=O)Cc1cccc(Cl)c1 (centres undefined)	9%	21%
CCOc1ccc(NC(=O)N2CCC(n3c(C)nc4cccnc43)CC2)cc1	-2%	-7%
CCOc1ccccc1NC(=O)CN(C)S(=O)(=O)c1ccc(C(=O)N2CCOCC2)s1	-23%	-7%
N#C/C(=C\c1c(OCc2ccccc2)ccc2ccccc12)c1nc2ccccc2[nH]1	0%	-8%
CCOc1ccc(-n2nc(CO)c(C(=O)NCC(C)O)n2)cc1 (centres undefined)	-1%	-12%
CCCSc1nc2c(c(=O)[nH]1)C(c1ccncc1)C(C(=O)OC)=C(C)N2 (centres undefined)	3%	-4%
O=C(COCC(=O)Nc1ccc(Oc2ccccc2)cc1)Nc1ccccc1	-19%	-22%
CCCOc1ccc(NC(=O)COc2ccc(F)cc2)c2cccnc12	?	?
CCN(C(=O)C1CCCN(c2ncnc3onc(-c4ccc(F)cc4)c23)C1)c1ccccc1 (centres undefined)	-9%	-8%
Cc1ccc(C(=O)Nc2ccc3nc(SCC(=O)N4CCC(C)CC4)sc3c2)cc1	-3%	-28%
O=C(Oc1ccc2oc3ccccc3c2c1)C1CCOCC1	99%[activator]	6%
N#Cc1ccccc1COC(=O)c1ccc(N2CCOCC2)nc1	-1%	0%
CN(C)S(=O)(=O)c1ccc2oc(SCCOc3cccc(Br)c3)nc2c1	?	-15%
COCC(=O)N(c1ccc(Br)cc1)C1C=CS(=O)(=O)C1 (centres undefined)	-15%	-11%
Cc1cccc(Cn2c(SCC(O)CO)nc3c2c(=O)[nH]c(=O)n3C)c1 (centres undefined)	22%	24%
CCc1ccc(/C=C(\C#N)C(=O)NC2CC2)s1	0%	0%
CC(=O)Nc1ccc(NC(=O)C(C)Br)cc1 (centres undefined)	0%	20%
COc1ccc(N2CCN(Cc3nc4c(c(=O)[nH]c(=O)n4C)n3Cc3ccccc3C)CC2)cc1	12%	-9%
CC(C)C1Cc2c(sc(N)c2C#N)CO1 (centres undefined)	-1%	-14%
Cc1cccc(Oc2nc3c(c(=O)n(C)c(=O)n3C)n2Cc2ccccc2)c1C	5%&-10%	5%&-4%
CC1CCC(NC(=O)C23CC4CC(CC(C4)C2)C3)CC1 (centres undefined)	105%[activator]	7%
Cc1ccc(C)c(N2CCN(S(=O)(=O)c3ccc(-c4cc(C(F)(F)F)on4)s3)CC2)c1	-14%	-9%
Cc1ccc2nc(COc3ccccc3NC(=O)c3ccccc3C)cc(=O)n2c1	-29%	11%
COc1ccc(C)cc1NC(=O)NCc1ccc2c(c1)CCN2C(=O)c1ccccc1	?	?
CCc1c(C)sc2c1CCN(C(=O)Nc1cc(OC)c(OC)c(OC)c1)C2c1ccccc1 (centres undefined)	-10%	-7%
Cc1noc(NS(=O)(=O)c2ccc(NC(=O)c3ccc(Br)cc3)cc2)c1C	27%	-5%
CCc1nc2c(cnn2-c2ccc(C)cc2)c(=O)n1Cc1ccccc1	-7%	34%[activator]
Cc1cc(C)c2nc(N3CCCC(C(=O)NCc4cccc(Cl)c4)C3)sc2c1 (centres undefined)	14%	-4%
CCOc1ccc2nc(NC(=O)c3cccn(Cc4ccccc4Cl)c3=O)sc2c1	21%	5%
CCOc1cc(/C=C/c2ncc(C(=O)O)s2)cc(Br)c1OC	18%	9%
Cc1ccc(CSc2nc3c([nH]c4ccccc43)c(=O)n2C)cc1	-14%	-11%
Cc1cccc(C)c1NC(=O)CC1(C(=O)O)CCCCC1	18%	8%

This is a subset; count on the stated rates, not on these rows.
